Rango complex inh: prevents formation of the Rango-importin beta complex; Rango CFP/YFP FRET sensor + importin beta, 45 min; Potency, µM (series often up to 92.2 µM), for inactives: at the top dose inhibition of complex formation; 340,000 compounds, 0.031% hits; AID 540263; active = rising FRET ratio curve, often small or poorly fitted; inconclusive = mostly compound fluorescence or quenching in the first reads; inactive = flat curves in all reads;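 further: potency means the concentration at half of the fitted maximal effect; 0% = DMSO wells and 100% = buffer wells lacking importin beta; nearly all actives have a fitted effect of over 15% in size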
Target sequence (Q14974 whole entry, looked up): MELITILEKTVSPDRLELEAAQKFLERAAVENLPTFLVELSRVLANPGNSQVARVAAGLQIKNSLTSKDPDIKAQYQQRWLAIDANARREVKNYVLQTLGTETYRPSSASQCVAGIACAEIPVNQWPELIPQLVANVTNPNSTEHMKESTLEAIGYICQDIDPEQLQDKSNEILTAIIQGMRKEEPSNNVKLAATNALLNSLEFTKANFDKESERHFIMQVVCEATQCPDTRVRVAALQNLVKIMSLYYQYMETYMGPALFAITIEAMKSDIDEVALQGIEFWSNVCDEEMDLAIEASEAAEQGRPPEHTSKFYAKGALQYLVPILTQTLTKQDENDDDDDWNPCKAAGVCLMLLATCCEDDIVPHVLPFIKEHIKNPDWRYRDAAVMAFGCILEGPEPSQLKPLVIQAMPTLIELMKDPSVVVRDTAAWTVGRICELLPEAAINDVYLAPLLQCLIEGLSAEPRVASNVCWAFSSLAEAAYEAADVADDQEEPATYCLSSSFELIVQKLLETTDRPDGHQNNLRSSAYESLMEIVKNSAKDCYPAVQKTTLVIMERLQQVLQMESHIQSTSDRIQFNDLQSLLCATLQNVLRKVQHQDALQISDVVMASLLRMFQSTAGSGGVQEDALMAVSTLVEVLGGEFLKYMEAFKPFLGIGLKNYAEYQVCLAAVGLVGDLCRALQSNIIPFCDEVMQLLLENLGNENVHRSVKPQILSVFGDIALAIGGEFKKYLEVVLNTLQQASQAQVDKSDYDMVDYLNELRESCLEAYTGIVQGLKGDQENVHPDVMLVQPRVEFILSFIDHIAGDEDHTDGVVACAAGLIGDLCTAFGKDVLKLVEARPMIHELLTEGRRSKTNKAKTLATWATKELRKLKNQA
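FRET biosensor (snurportin 1 IBB flanked by EYFP and cerulean), 50 nM, with compound 5 min, then 0.125 microM importin beta in PBS, 1 mM DTT, 0.02% Tween-20, 0.1% BSA. CFP/YFP ratio read after 45 min at room temperature; pre-read flags interference.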
miR-21 FLuc: raises the signal of a miR-21 reporter; HeLa miR-21 FLuc reporter, luciferase, 48 h; Potency, µM (series often up to 38.3 µM), for the others: at the highest dose reporter change, positive = more light; 340,000 tested, under 10 active; AID 2288; active = well fitted rising curve with a large enough effect; inconclusive = small, poorly fitted or top-dose-only effect; inactive = no such curve, though single readings can be large or run the other way;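 further: % of control where 0% means no effect; miR-21 action dims this reporter so a rising signal means less miR-21 action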
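HeLa cells endogenously expressing miR-21, stably carrying CMV-driven firefly luciferase with a downstream miR-21 binding site, 2000 cells/well. Titrations up to approximately 40 uM, 48 hours; luciferase luminescence read.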
GLA inh pH 4.5: inhibitors of human alpha-galactosidase A at pH 4.5; P06280; purified enzyme, 4-MU-alpha-Gal fluorescence, pH 4.5; activity change, negative = inhibition, % at 105 µM; 230,000 tested, under 10 active; inconclusive = small, poorly fitted or top-dose-only inhibition, or a rising curve; inactive = flat fitted curve, though single readings scatter; no compound was filed as active;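 further: 0% = full activity with enzyme and -100% = basal without enzyme; dose as in the result columns while the protocol names 77 µM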
Rango dissoc inh: inhibitors of RanGTP-induced Rango-importin beta complex dissociation. O95149+P62826. Potency, µM (top dose mostly 46.1 µM), without a hit: at the highest dose activity change, negative = inhibition. Biochemical FRET Rango-importin beta, RanGTP-induced dissociation. 340,000 compounds, 0.071% hits; active means falling FRET ratio curve, often poorly fitted, with flat reads before Ran was added; inconclusive means other falling curves, or compound fluorescence or quenching; inactive means flat or rising ratio curve;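 further: potency means the concentration at half of the fitted maximal effect; % of control where 0% means no effect; nearly all actives have a fitted effect of over 45% in size; -100% = wells without RanGTP and RCC1; the record marks most hits as doubtful in a second field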
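Rango (0.1 uM)–importin beta (0.25 uM) complex; RanGTP-RCC1 trigger; 45 min RT; CFP/YFP FRET read.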
Numbers without * were called inactive; ? = inconclusive; / = no result given; & = joins results of further samples; [ ] = remark or other dose. These rows are one share of the data; count on the stated rates, not on these rows.

SMILES	Rango dissoc inh	miR-21 FLuc	GLA inh pH 4.5	Rango complex inh
O=[N+]([O-])c1ccc(Cc2nnc(-c3ccc(F)cc3)o2)cc1	-8%	-63%	5	1.0%
O=S(=O)(c1ccc(C(F)(F)F)cc1)N1CCCN(c2ccc(C(F)(F)F)cn2)CC1	29%	2%	-25	-6.2%
CC(C)(CN1CCC(Cc2ccccc2)CC1)NS(=O)(=O)c1ccccc1	1%	26%	-10	7.5%
COc1ccc(C(=O)Nc2c(C)ccc3nsnc23)cc1[N+](=O)[O-]	-4%	-1%	1	-2.6%
COC(=O)CN(C(=S)Nc1ccc(F)cc1)C1CC(=O)N(c2ccc(OC)cc2)C1=O (stereo unspecified)	-14%	-3%	-4	1.0%
CNC(=O)c1csc(-c2ccncc2)n1	2%	-10%	-6	-1.0%
CC(C)CCn1c(CN2CCN(Cc3ccccc3)CC2)nc2c1c(=O)[nH]c(=O)n2C	-1%	-5%	2	1.9%
Fc1ccc(Nc2nnns2)cc1	2%	2%	0	-1.2%
C/C(=N\O)C(=O)NCCCn1ccnc1	7%	-3%	2	-4.4%
O=C(O)c1cccc(S(=O)(=O)Nc2ccccc2C(=O)NCCc2ccccc2)c1	9%	-32%	/	0.7%
Cc1cc(C)nc(/N=C2/NC(=O)CS2)n1	?	0%	6	?
O=C(COC(=O)c1cccc2ccccc12)Nc1cccnc1Cl	-15%	-18%	0	-1.5%
Cc1cc(C(=O)Nc2nc3c(s2)CCCC3)cs1	-13%	12%	2	4.8%
CCOCCn1c(N2CCCC2)nc2c1c(=O)[nH]c(=O)n2C	1%	-6%	/	0.9%
O=C(CCCN1C(=O)c2cccc3cccc(c23)C1=O)NCCN1CCOCC1	7%	1%	6	-5.6%
NS(=O)(=O)c1ccc(NC(=O)c2ccc(COc3ccccc3)o2)cc1	8%	-10%	-4	2.8%
CC(=O)c1ccc(NC(=O)c2ccn(C(=O)OCC(C)C)n2)cc1	-7%	1%	1	-4.4%
Cc1ccc(C(=O)NC(C)c2nnc(SCC(=O)NC3CCCC3)n2C)cc1 (stereo unspecified)	-8%	0%	/	2.4%
COc1ccccc1CC(=O)Nc1ccc(S(=O)(=O)N(C)C2CCN(C)CC2)cc1	5%	/	/	0.6%
CC(C)CC1NC(=O)N(CC(=O)Nc2cc(F)ccc2F)C1=O (stereo unspecified)	-3%	/	/	-0.2%
CCOC(=O)C1=C(C)NC(C)=C(C(=O)OCCNC(=O)c2cccnc2)C1c1cccc([N+](=O)[O-])c1 (stereo unspecified)	1%	5%	6	-0.9%
Cc1ccc(S(=O)(=O)CCC(=O)OCc2ccc(Cl)cc2)cc1	-4%	-11%	-1	-3.7%
CSc1ccc(NC(=O)NCc2ccccc2)cc1	2%	-63%	-1	-0.2%
Cc1ccc(-n2nc3c(=O)n(CC(=O)NCc4cccs4)nc(C)c3c2C)cc1	14%	0%	/	0.1%
O=C(NCCS(=O)(=O)NC1CCCCC1)c1ccccc1	-1%	/	/	0.7%
O=C(O)C1CCCN1S(=O)(=O)c1ccc2c(c1)CCC2 (stereo unspecified)	9%	-1%	-1	-1.7%
Cc1[nH]c2ccccc2c1SCC(=O)N1CCN(c2ccccc2)CC1	4%	-1%	2	-1.3%
COc1ccc2c(c1)C(c1ccccc1)NC(=O)C2 (stereo unspecified)	1%	/	/	1.9%
COC(=O)CCC(=O)Nc1nccs1	2%	-2%	-1	3.2%
CC(C(=O)NC1CCCC1)N(c1ccc(Oc2ccccc2)cc1)S(C)(=O)=O (stereo unspecified)	20%	-1%	-4	-6.1%
CCCCn1c(-c2nn(C)cc2Cl)n[nH]c1=S	-6%	-2%	-1	-0.2%
CCOc1ccc(CNC(=O)C2CCCN(S(C)(=O)=O)C2)cc1OC (stereo unspecified)	-6%	-7%	1	-0.2%
COc1ccc(NC(=O)Nc2ccon2)cc1OC	-3%	-3%	/	-3.8%
CC(=O)Nc1ccc(SCC(=O)Nc2oc(C)c3c(C)n[nH]c(=O)c23)cc1	19%	/	/	0.8%
COc1ccc(C(=S)N2CCN(c3ccccc3C)CC2)cc1OC	8%	/	/	-0.9%
Cc1ccc2nc(COC(=O)c3cnccn3)cc(=O)n2c1	3%	/	/	1.6%
CCN(CC(=O)Nc1c(F)cccc1F)C(=O)CCc1nc2cc(S(=O)(=O)N3CCOCC3)ccc2n1C	10%	/	/	-1.4%
CCc1ccc(S(=O)(=O)Nc2cc3c(cc2N2CCOCC2)n(C)c(=O)c(=O)n3C)cc1	-1%	0%&10%	/	0.8%
O=C(Cn1c(=O)c2c(ncn2Cc2ccccc2)n(Cc2ccccc2)c1=O)N1CCc2ccccc21	-8%	-7%	-2	5.3%
COc1ccc(NC(=O)c2cccc(N3C(=O)C4C5CCC(C5)C4C3=O)c2)cc1 (stereo unspecified)	-5%	11%	/	-1.9%
O=C(O)c1cccc(N(CCO)CCO)c1	11%	1%	9	1.4%
CC(=O)N/C(=C\c1ccccc1)C(=O)OCc1cc(C)ccc1C	-13%	1%	/	1.0%
COc1cccc(OCC(=O)NC2CCCCCC2)c1	-10%	/	/	-1.0%
COc1ccc2c(CC(=O)OCC(=O)Nc3ccccc3[N+](=O)[O-])coc2c1	-1%	0%	0	-0.3%
Cc1cc(C)cc(C(=O)N(CCc2ccccc2)C2=CC3CCC(C2)N3C)c1 (stereo unspecified)	-14%	2%	-15[21.1 µM]	4.7%
Cc1nn(C)c(NC(=O)c2ccc([N+](=O)[O-])cc2)c1Cl	10%	1%	6	0.9%
Cn1nnnc1SCC(=O)N1N=C(c2ccc(Cl)cc2)CC1c1ccco1 (stereo unspecified)	26%	/	/	0.5%
Cc1cc2c(cc1S(N)(=O)=O)S(=O)(=O)CCC2	-6%	/	-8	0.4%
CCN(C(=O)CSc1nncs1)c1c(N)n(Cc2ccccc2)c(=O)[nH]c1=O	-4%	-1%	6	-1.3%
COCCCNC(=S)Nc1ccc(N2CCCCC2)cc1	7%	-24%	6	2.6%
Cc1cc(=O)oc2c(C)c(OCC(=O)NC3CC(C)(C)NC(C)(C)C3)ccc12	-4%	5%	/	-1.8%
CCN(CCCNC(=O)C1CCC(=O)N1C1CCCC1)c1cccc(C)c1 (stereo unspecified)	6%	1%	16	0.1%
O=[N+]([O-])c1ccc2nc(-c3ccc(OC(F)F)cc3)cn2c1	27%	-18%	2	-1.3%
CCc1cccc(N(C(=O)c2csnn2)C(C(=O)NC2CCCC2)c2cccnc2)c1 (stereo unspecified)	1%	0%	/	-3.1%
COc1ccccc1Nc1ncccc1C(=O)O	-2%	-5%	-2	2.7%
Cc1n[nH]c(=S)n1/N=C/c1ccc(OCc2ccc(Cl)cc2)cc1	-5%	-17%	-1	-8.1%
COc1ccc(-c2noc(=O)[nH]2)cc1	-10%	-8%	1	4.7%
CNC(=O)CSc1nc2cccnc2n1C1CCCCC1	-2%	-1%	/	-2.5%
Nc1ccc(S(=O)(=O)N2CCCC2)cc1	9%	0%	-5	0.5%
O=C(O)CSCc1cnn(-c2ccccc2)c1-n1cccc1	-4%	?	0	-2.9%

Retrieved by compound from the entries so far (3):
SMILES	Rango dissoc inh	miR-21 FLuc	GLA inh pH 4.5	Rango complex inh
CCCCn1c(-c2nn(C)cc2Cl)n[nH]c1=S	-6%	-2%	-1	-0.2%
Cn1nnnc1SCC(=O)N1N=C(c2ccc(Cl)cc2)CC1c1ccco1 (stereo unspecified)	26%	/	/	0.5%
Cc1ccc2nc(COC(=O)c3cnccn3)cc(=O)n2c1	3%	/	/	1.6%

Next section
SMILES	Rango dissoc inh	miR-21 FLuc	GLA inh pH 4.5	Rango complex inh
CCCc1cc(=O)oc2cc(C)cc(OCC(=O)NC3CC3)c12	2%	7%	/	0.7%
O=C(c1ccc2c(c1)[nH]c(=S)n1c3ccccc3nc21)N1CCN(c2ncccn2)CC1	10%	-2%	-7	0.5%
O=C1C(Cc2ccccc2)Nc2ncnc(N3CCOCC3)c2N1Cc1ccc(Br)cc1 (stereo unspecified)	0%	/	/	?
COc1ccc(-c2nnc3n2N=C(c2ccccc2)CS3)cc1OC	/	-11%	-2	/
CCc1ccc(CN(C)C(=O)C2CCC(=O)N(CCc3ccc(OC)cc3)C2)nc1 (stereo unspecified)	0%	1%	/	1.2%
COc1ccc(C2CC(=O)c3cc(OC)c(OC)cc32)cc1OC (stereo unspecified)	-4%	-14%	0	1.0%
O=C(Nc1nc2c(F)cccc2s1)c1ccc([N+](=O)[O-])o1	-9%	5%	/	-0.6%
CCOC(=O)C1C(=O)CC(C)(O)C(C(=O)OCC)C1/C=C/c1ccccc1 (stereo unspecified)	-11%	10%	/	-2.3%
CCc1ccc(N/C(SCc2cccc(F)c2)=C(/C#N)C(=O)NCc2ccco2)cc1	-10%	6%	-15	0.5%
CSc1nnc(N2C(=O)C(O)=C(C(=O)c3ccco3)C2c2cccc(Cl)c2)s1 (stereo unspecified)	?	-17%	/	0.6%
Cc1cc(C)c2c(-n3cccc3)c(C(=O)NNS(=O)(=O)c3ccccc3)sc2n1	-14%	-12%	-11	-0.9%
Cc1ccc(S(=O)(=O)Nc2cncnc2NS(=O)(=O)c2ccc(C)cc2)cc1	1%	/	/	3.2%
Cc1cccc(C)c1NC(=O)CN(C)C(=O)c1ccc2c(=O)n3c(nc2c1)CCC3	-4%	/	/	0.7%
CC(Sc1nnc(-c2ccco2)n1C)C(=O)Nc1ccc(N2CCOCC2)cc1 (stereo unspecified)	-7%	/	/	4.2%
Cc1oc2c(c(C)cc3oc(=O)c(CC(=O)NCCC(=O)O)c(C)c32)c1C	-18%	0%	/	4.9%
Cc1ccc(NC(=O)C2CCN(S(=O)(=O)c3ccc4c(c3)NC(=O)CO4)CC2)cc1	2%	8%	/	-0.3%
O=C(CN1C(=O)c2ccccc2S1(=O)=O)NCCSCc1ccccc1Cl	-4%	1%	/	0.2%
Cc1ccc(C2C(=O)c3ccccc3C2=O)cc1	17%	-24%	/	0.0%
COc1ccc2c(c1)CCN=C2Cc1ccc(OC)c(OC)c1	9%	8%	5	-4.5%
CCc1ccc(C(=O)Nc2nc3ccccc3[nH]2)cc1	2%	?	/	0.1%
CC(C)NC(=O)COc1nncc2ccccc12	-5%	1%	4	5.8%
N#Cc1c(-c2ccccc2)c(C#N)c2nc3ccccc3n2c1N	?	-3%	-2	?
Cc1cc(C)c(NS(=O)(=O)c2ccc3c(c2)n(C)c(=O)n3C)c(C)c1	-2%	-1%	/	0.1%
CC(C)(C)NC(=O)CSc1nc(Cc2ccccc2)nc2ccccc12	12%	-5%	/	1.4%
C#CCOCCOCCOCCNc1nc(N2CCN(C(=O)[C@H]([C@@H](C)CC)n3cc([C@@H](N)CO)nn3)CC2)nc(N2CCN(C(=O)[C@H](Cc3cc4ccccc4[nH]3)n3cc([C@@H](N)C(C)CC)nn3)CC2)n1 (stereo partly specified)	/	-2%	-13	/
O=C(O)CCCCCn1c(SCc2cc(=O)n3cc(Cl)ccc3n2)nc2ccsc2c1=O	0%	-7%	17	-2.0%
CC(NC(=O)Nc1ccc(Cl)cc1)c1ccccc1 (stereo unspecified)	7%	11%	/	0.6%
O=C(CN1C(=O)CCS(=O)(=O)c2ccccc21)Nc1cccc(Cl)c1	16%	-7%	2	-0.9%
O=C(COC(=O)[C@@H]1CCCN1S(=O)(=O)c1ccc(Cl)cc1)NCC(F)(F)F	-23%	-5%	-9	3.7%
Cc1cc(C(=O)COC(=O)c2n[nH]c3ccccc23)c(C)n1CC1CCCO1 (stereo unspecified)	16%	-7%	6	-0.2%
CNS(=O)(=O)c1ccc(NC(=O)c2csc(C)c2)cc1	18%	-3%	/	-1.1%
COc1ccc(CN2CCN(Cc3cc4ccccc4o3)CC2CCO)c(F)c1 (stereo unspecified)	-3%	3%	/	2.4%

Source: PubChem (National Center for Advancing Translational Sciences (NCATS))
